# Screens: PubChem, ICCB-Longwood Screening Facility, Harvard Medical School
# MgrA DNA FP – alters Staphylococcus aureus MgrA binding to DNA. fluorescence polarization. inhibition, %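 (about 10 µg/mL by stock and volumes)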. 0.13% of 84,000 active. AID 602314;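 active = above 50% in either of two replicates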;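 note: 0% = protein plus DNA without compound and 100% = DNA alone without protein; higher means less MgrA bound to DNA so lower polarization; one replicate is shown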
# S aureus helic – blocks Staphylococcus aureus DNA helicase. purified S. aureus helicase, fluorescence unwinding assay; about half of the hits fall short of the stated cut. inhibition, %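 (tested at about 80 µM)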. 0.05% of 120,000 active. AID 485395;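 active = both duplicates at 50% or more, or one of them with a favoured structure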;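 note: 0% = mean of negative control wells and 100% = mean of positive control wells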
# * = called active by the depositor; / = no result given. These rows are one share of the data. The share of hits here may be higher or lower than overall.
SMILES,MgrA DNA FP,S aureus helic
CC1(C)CC(N=CC2=C(O)c3ccccc3C2=O)CC(C)(C)N1,1.4,10
O=C(Cn1ccc2ccccc2c1=O)NCCC(=O)N1CCCCC1,-1.0,9
CC(C)(C)CC(=O)Nc1ccc(-c2nnc3n2CCCCC3)cc1,/,-1
CC(C)(C)c1ccc(/C=C/C(=O)Nc2cccnc2)cc1,2.5,4
Cn1c(C(=O)O)cc2ccccc21,1.4,10
CCn1c(=O)oc2cc(Br)ccc21,1.8,11
Cc1nn(-c2ccccc2)c(Cl)c1C(=O)NC1CCS(=O)(=O)C1 (stereo not drawn),-0.2,0
COC(=O)c1c(NC(=O)c2ccc(OC)cc2)sc2c1CCN(C(C)C)C2,/,42
Cc1ccc(Cc2cnc(I)c(O)c2)cc1,3.6,2
CCCN(CCC)S(=O)(=O)c1ccc(Br)cc1,0.1,-19

# One compound at a time, from the list above:
# Results for Cc1nn(-c2ccccc2)c(Cl)c1C(=O)NC1CCS(=O)(=O)C1 (stereo not drawn) = MgrA DNA FP: -0.2; S aureus helic: 0
# Results for Cn1c(C(=O)O)cc2ccccc21 = MgrA DNA FP: 1.4; S aureus helic: 10

# In the list so far, two contain bromine.
SMILES,MgrA DNA FP,S aureus helic
CCn1c(=O)oc2cc(Br)ccc21,1.8,11
CCCN(CCC)S(=O)(=O)c1ccc(Br)cc1,0.1,-19
